H5N1 antiviral: antiviral screen in MDCK cells, H5N1 avian flu; cytopathic effect, luminescence, 72 h; stronger effect = higher value; no value below 0 was filed and about half of the inactive calls have no number; reference of the scale not given here; inhibition, % at 50 µM; 96,000 tested, 0.07% active; AID 740; in the data active means inhibition above about 25%
An asterisk follows results filed as active; i = inactive. A portion of the library, so the mix of outcomes need not match the whole.

SMILES	H5N1 antiviral
CCSc1nc2c(c(=O)[nH]c(=O)n2C)n1C/C=C(/C)Cl	0.2
CN(Cc1cc(=O)[nH]c2ccccc12)C(=O)c1ccccc1	i
COc1cc(CNc2ccccc2SC)cc(OC)c1OC	i
Cc1cnc(NC(=O)CSc2nc3ccccc3c(=O)[nH]2)s1	2.8
CC(C)CCN1C(=O)c2ccc(-c3nc4ccccc4c(=O)o3)cc2C1=O	i
O=C(c1ccccc1)[C@H]1[C@H](c2ccccc2)[C@@]2(N=C(c3ccccc3)OC2=O)C2c3ccccc3C=NN21 (some centres not stated)	i
COc1ccccc1NS(=O)(=O)c1cccc(NC(=O)c2nc3nc(C)cc(C)n3n2)c1	i
O=C(NCC(c1cccnc1)N1CCOCC1)C1CCCCC1 (configuration not stated)	0.2
COC(=O)C1=C(N)Oc2cc(C)n(C)c(=O)c2C1c1ccc(Cl)c(Cl)c1 (configuration not stated)	i
COc1ccc(C(C(=O)NCc2ccccc2)N(Cc2cccs2)C(=O)c2cnccn2)cc1 (configuration not stated)	i
Cc1cc(C)nc(Nc2nc(=O)c3ccccc3s2)n1	i
COc1cc(OC)nc(NC(=O)NS(=O)(=O)c2ccc(OC(F)(F)F)cc2)n1	i
CCOc1ccc2nc(N3CCOCC3)nc(C)c2c1	2.2
CCOC(=O)Cc1nnc(NC(=O)c2ccccc2OCC)s1	0.6
COC(=O)c1cc(Cl)c(NC(=O)c2ccco2)cc1OC	i
CC1Cc2ccccc2N1C(=O)CCNS(=O)(=O)c1ccc2c(c1)CCC(=O)N2 (configuration not stated)	0.2
CCOC(=O)c1ccccc1NCN1C(=O)CSC1=O	0.3
COc1ccc2c(Cl)c(-c3nnco3)sc2c1	0.7
O=C(NCc1ccco1)c1ccc(S(=O)(=O)N2CCCc3ccccc32)cc1	1.1
COc1ccc(-c2cc(C(=O)OC3CCOC3=O)c3ccccc3n2)cc1OC (configuration not stated)	0.2
Clc1ccccc1/C=N/c1cc(-c2ccccc2)nn1-c1ccccc1	i
Cc1ccc(S(=O)(=O)n2ccc(-c3cccc(OCc4c(F)cccc4Cl)c3)n2)cc1	i
O=C(O)c1cc2nc(-c3ccc(F)cc3)cc(C(F)(F)F)n2n1	1.9
CC(=O)Nc1ccc(N2CCN(C(C)=O)CC2)cc1	i
Cc1cnc(NC(=O)C2CCCC2)s1	10
COc1cc(C2c3c(n[nH]c3C)C(=O)N2c2ccc(C)cc2)ccc1O (configuration not stated)	i
O=S(=O)(NCC(c1cccnc1)N1CCN(c2ccc(F)cc2)CC1)c1cccs1 (configuration not stated)	4.7
COC(=O)c1cc(C#N)c(N(C)Cc2ccccc2)nc1C	i
CCn1c(CSc2nc(C)cc(C)n2)nnc1SCC(=O)Nc1ccccc1	i
Cc1ccc(NC(=O)NCCCc2ccccc2)cc1	1.5
CCOC(=O)c1cc2ccc(OC(=O)c3ccco3)cc2oc1=O	i
Cc1cc(Nc2ccc(Br)cc2F)n2nc(C)nc2n1	1.5
Cc1ccc(-n2c(C)cc(C(=O)CSc3nncs3)c2C)cc1	6.5
Cc1cc(C)n(-c2nc(SCC(=O)Nc3nccs3)c3c4c(sc3n2)COC(C)(C)C4)n1	0.4
Cc1nc(N)sc1-c1csc(Nc2ccccn2)n1	i
O=C(CCS(=O)(=O)c1ccc(Br)s1)NC1CCCCCC1	i
CC(C)OC(=O)c1c(NC(=O)Cn2cnc([N+](=O)[O-])n2)sc2c1CCCC2	0.2
O=C(O)C(C(=O)/C=C/c1ccco1)=C1SCCS1	2.4
CCNC(=S)NNC(=O)c1cccn(Cc2ccc(Cl)cc2)c1=O	1.5
COc1ccccc1OCCCn1c(=O)sc2ccccc21	0.5
O=C(NNS(=O)(=O)c1ccccc1)c1sccc1-n1cccc1	1.4
Cc1c(C(Nc2ccccn2)c2ccc(Cl)cc2)c(=O)n(-c2ccccc2)n1C (configuration not stated)	i
O=C(COC(=O)c1cc(S(=O)(=O)N2CCc3ccccc3C2)ccc1Cl)NCc1ccco1	i
CCOC(=O)c1cnc(-c2ccccc2)[nH]c1=O	i
c1ccc2c(c1)ccc1nnc(-c3ccc4c(c3)OCO4)n12	1.5
Fc1ccc(NC(=S)Nc2ccc(F)c(Cl)c2)cc1Cl	5.9
CSc1cccc(NC(=O)C2CCCN2S(=O)(=O)c2ccc3c(c2)CCC(=O)N3)c1 (configuration not stated)	i
COc1ccc(C)cc1S(=O)(=O)N1CCCCC1	i
CCc1ccc(NC(=O)CSc2nnc(CC)c(CC)n2)cc1	i
CCOC(=O)c1cc(-c2ccccc2)sc1NC(=O)C(C)(C)C	i
Nc1c(C(=O)c2ccc(F)cc2)oc2ccccc12	i
C=CCSC1=C(C#N)C(c2ccccc2OCC)C(C#N)C(=O)N1 (configuration not stated)	0.1
CCCc1nc(N)sc1C(=O)OCC	i
CCN(CC)C(=O)CSc1nnc(-c2ccc(S(=O)(=O)N3CCCC3)cc2)o1	0.8
Cc1nnc(NC(=O)CSc2nnc(-c3ccc(S(=O)(=O)N4CCCC4)cc3)n2C)s1	i
O=S(=O)(Nc1cccnc1Cl)c1ccc2c(c1)OCCO2	0.2
COC(=O)C1(C#N)C(c2ccccc2)C1(C(=O)OC)C(=O)OC (configuration not stated)	i
Cc1cc(NCC(C)C)n2ncnc2n1	0.2
CCOCCNC(=O)c1ccc2c3c(cccc13)CC2	0.1
c1ccc2c(c1)oc1c(Nc3ccc4c(c3)OCCO4)ncnc12	i

More results follow:
SMILES	H5N1 antiviral
O=C(C1CN(S(=O)(=O)c2ccccc2)CCN1S(=O)(=O)c1ccccc1)N1CCCCCC1 (configuration not stated)	0.1
COc1ccccc1C(=O)n1nc(-c2ccccc2)nc1N	3.8
COc1ccc(NC(=O)c2ccc(-n3nc(C)c[n+]3[O-])cc2)cc1	0.4
CCC1Oc2nc(SC)nnc2-c2ccccc2N1C(=O)c1ccccc1 (configuration not stated)	1.5
COc1ccc(Cn2cnc3c(NS(C)(=O)=O)c(C)c(C)cc32)cc1	1.0
O=C(c1ccco1)N1CCN(C(=O)C2CCCc3c2[nH]c2ccc(Cl)cc32)CC1 (configuration not stated)	i
CC#CCCCC(=O)Nc1cccc(C(=O)O)c1	0.1
COc1ccccc1CC(NC(C)=O)C(=O)N1CCN(C(=O)Nc2ccccc2Cl)CC1 (configuration not stated)	0.6
Cc1ccc(Nc2nc(N)nc(CSC(=S)N3CCOCC3)n2)cc1	2.7
COC(=O)C1(C(=O)OC)NOC2C(=O)N(c3ccccc3)C(=O)C21 (configuration not stated)	i
CCOC(=O)c1ccc(NC(=O)c2nn(C)cc2Br)cc1	i
CCOC(=O)c1cc(CC)sc1NC(=O)CCC(=O)O	i
O=S(=O)(NCc1csc(-c2cccnc2)n1)c1ccc(Cl)s1	4.0
C=CCNC(=O)C1CCN(S(C)(=O)=O)CC1	i
Cc1cc(=O)cc(C)n1-c1ccccc1N1CCOCC1	1.2
COc1cccc(N2CCN(C3CC(=O)N(c4cccc(Cl)c4)C3=O)CC2)c1 (configuration not stated)	i
COC(=O)c1ccc(CSc2nc(-c3ccco3)cc(C(F)(F)F)n2)o1	i
O=C(NCC(=O)N1CCCC1C(=O)O)OC1CCCCC1 (configuration not stated)	0.2
CC1(C)CC(=O)C(/C=N/c2ncccc2C(=O)O)=C(O)C1	i
Cc1cc(C)c2c(CN3CCN(Cc4ccc5c(c4)OCO5)CC3)cc(=O)oc2c1	0.2
CN1/C(=C\C=C\C2=[N+](C)c3ccc4ccccc4c3C2(C)C)C(C)(C)c2ccccc21	i
CCOc1ccc(/C=c2\sc3nc(-c4ccco4)nn3c2=O)cc1OCC	2.3
Cc1cc(C)cc(OCC(=O)Nc2ccc3c4c(cccc24)CC3)c1	i
CCCCNC(=O)COC(=O)c1ccc(Cl)c(S(N)(=O)=O)c1	0.8
Cc1[nH]c(=O)[nH]c(=O)c1S(=O)(=O)NCCOC12CC3CC(CC(C3)C1)C2	i
Cc1nnc(SCC(=O)N2CCC(Cc3ccccc3)CC2)n(N)c1=O	i
CCN(CC)C(=O)CSc1nc2sc(C)c(C)c2c(=O)[nH]1	2.3
Cc1cccc(Cl)c1OCCCCn1ccnc1	i
CC1(C)Oc2ccc3ccc(=O)oc3c2/C(=C/NCCN/C=C2\C(=O)C(C)(C)Oc3ccc4ccc(=O)oc4c32)C1=O	i
COc1ccc(CC(C)N2CCN(c3cccc(C(F)(F)F)c3)CC2)cc1OC (configuration not stated)	0.4
O=C(CSc1nnc2scc(-c3ccccc3)n12)c1ccc2c(c1)OCCO2	1.5
Cc1cc(NC(=O)CSc2nnc(COc3cccc(C)c3C)n2Cc2ccco2)no1	3.0
CCCS(=O)(=O)N1CCCC(C(=O)NCCN2CCOCC2)C1 (configuration not stated)	i
Cc1ccc(OCC(=O)Nc2ccc3c(c2)nc2n3CCOC2)cc1	0.5
CN(C)c1ncc(S(=O)(=O)c2ccccc2)c(-c2ccc(Cl)cc2Cl)n1	0.1
COc1ccc(CC(=O)NC(CC(=O)O)c2ccc(OC)cc2)cc1 (configuration not stated)	1.2
COc1c(Cl)cc(Cl)cc1CNCCNCCO	i
COc1cccc(N2C(=O)CC(N3CCN(S(=O)(=O)c4ccccc4)CC3)C2=O)c1 (configuration not stated)	1.2
Cc1cccc(C(=O)NC(=S)Nc2ccc(S(=O)(=O)N3CCN(C)CC3)cc2)c1	0.2
O=S(=O)(NCCCN1CCN(c2ccccc2F)CC1)c1cccc2cccnc12	1.9

Filtered by structure: the compounds so far with a COOH group (7)
SMILES	H5N1 antiviral
O=C(O)c1cc2nc(-c3ccc(F)cc3)cc(C(F)(F)F)n2n1	1.9
O=C(O)C(C(=O)/C=C/c1ccco1)=C1SCCS1	2.4
CC#CCCCC(=O)Nc1cccc(C(=O)O)c1	0.1
CCOC(=O)c1cc(CC)sc1NC(=O)CCC(=O)O	i
O=C(NCC(=O)N1CCCC1C(=O)O)OC1CCCCC1 (configuration not stated)	0.2
CC1(C)CC(=O)C(/C=N/c2ncccc2C(=O)O)=C(O)C1	i
COc1ccc(CC(=O)NC(CC(=O)O)c2ccc(OC)cc2)cc1 (configuration not stated)	1.2

An excerpt of these results, with bars between the fields:
structure | H5N1 antiviral
COc1ccc(CC(=O)NC(CC(=O)O)c2ccc(OC)cc2)cc1 (configuration not stated) | 1.2
COc1c(Cl)cc(Cl)cc1CNCCNCCO | i

(more compounds)
SMILES	H5N1 antiviral
Cc1ccc(C)c(N(CC(=O)NC2CCCC2)C(=O)c2cc3cc4cc(C)ccc4nc3s2)c1	i
S=c1[nH]nc(C23CC4CC(CC(C4)C2)C3)n1Cc1ccco1	i
Cc1ccc(C2=NCC(=O)N(CC(=O)N3CCCCC3)c3sc(C)c(C)c32)cc1	i
COC(=O)c1c(NC(=O)CCCC(=O)O)sc2c1CCC2	1.0
CCOc1ccccc1-n1c(SCC(N)=O)nnc1-c1ccccc1	i
COc1cccc(CNC(=O)C2CCCN(S(=O)(=O)c3c(C)n[nH]c3C)C2)c1 (configuration not stated)	0.3
O=C(CNC(=O)/C(=C\c1ccccc1)NC(=O)c1ccc(Br)cc1)OCc1ccccc1	i
CN(C)CCNc1oc(-c2cccc(Cl)c2)nc1C#N	i
Cc1ccc2[nH]c(=O)c(C(c3nnnn3C3CCCC3)N(Cc3cccnc3)Cc3ccco3)cc2c1 (configuration not stated)	i
Cc1occc1-c1nnc(SCC(=O)Nc2ccccc2)n1Cc1ccccc1	i
O=C(NCCc1ccccc1)c1ccc(OCCOc2ccccc2)cc1	i
O=C(c1cc2ccccc2oc1=O)N1CCN(CCc2ccccc2)CC1	0.3
CC1(C)CC(NC(=O)c2coc(=O)c(Br)c2)CC(C)(C)N1	i
CCOC(=O)N1CCC(NC(=O)CCC(=O)N2CCOc3ccccc32)CC1	0.1
Cc1ccc(C)c(N2CCN(C(=O)C3CCCN(S(=O)(=O)c4cnc[nH]4)C3)CC2)c1 (configuration not stated)	1.9
Cc1ccccc1N/C=C/C(=C(C#N)C#N)N(C)C	i
CCCCn1cnc2c1c(=O)[nH]c(=O)n2CCCC	0.2
CCc1nnc(NC=C2C(=O)OC(C)(C)OC2=O)s1	0.6
CC(=O)/C(C(=N)N1CCN(c2cccc(Cl)c2)CC1)=C(\C)O	i
C/C(=N/NC(=O)c1cc(Cl)ccc1O)C12CC3CC(CC(C3)C1)C2	i
Clc1ccc(CSc2nnc(-c3cccnc3)o2)cc1	0.3
COc1ccc(-c2nsc3c(N4CCN(C(=O)c5ccco5)CC4)ncnc23)cc1	i
O=S1(=O)NC(=NCc2ccco2)c2ccccc21	2.7
COc1cc(/C=C(/C#N)c2ccc(C)cc2)ccc1Oc1ccc([N+](=O)[O-])cn1	i
CCN(CC)C(=O)CSc1nnc(CNc2ccc(F)cc2)o1	0.7
COc1ccc(S(=O)(=O)Cc2ccc(C(=O)N3CCN(c4ccccc4F)CC3)o2)cc1	2.8
CN1CCN(c2ccc(NC(=O)COc3ccc(Cl)cc3Cl)cc2)CC1	i
CCN(CC(=O)Nc1cccc(OC)c1)C(=O)c1ccc(C)s1	i
Cc1nn(C)c(C)c1/C=C/C(=O)c1ccccc1	i
N#CCCn1cc(/C=N/O)c(-c2ccc(F)cc2)n1	0.4
CCOC(=O)N1CCN(C(=O)c2ccc(Cl)c(S(=O)(=O)N3CCOCC3)c2)CC1	0.2
COc1ccc(S(=O)(=O)NCc2csc(-c3cccnc3)n2)cc1	1.7
Nc1nnc(SCC(=O)N2CCN(c3ccccc3)CC2)n1-c1ccccc1	1.0
O=C(Nc1ccccc1F)C1CCN(C(=O)Cc2ccccc2)CC1	i

Retrieved by compound from the entries so far, 5 records:
SMILES	H5N1 antiviral
CCN(CC(=O)Nc1cccc(OC)c1)C(=O)c1ccc(C)s1	i
Cc1nn(C)c(C)c1/C=C/C(=O)c1ccccc1	i
Nc1nnc(SCC(=O)N2CCN(c3ccccc3)CC2)n1-c1ccccc1	1.0
O=C(Nc1ccccc1F)C1CCN(C(=O)Cc2ccccc2)CC1	i
CCOC(=O)N1CCN(C(=O)c2ccc(Cl)c(S(=O)(=O)N3CCOCC3)c2)CC1	0.2
